# H5N1 CPE – antiviral screen in MDCK cells, H5N1 avian flu; hit rate 0.07% among 96,000; inhibition, % at 50 µM; AID 740; cytopathic effect, luminescence, 72 h; hits give high values; no value below 0 was filed and about half of the inactive calls have no number; reference of the scale not given here; in the data active means inhibition above about 25%
# Active calls of the source: *; i = inactive. Not all compounds are listed, so the mix of outcomes need not match the whole.
# Preview:
SMILES,H5N1 CPE
O=C(COC(=O)[C@H](Cc1ccccc1)NS(=O)(=O)c1ccccc1F)NC1CCCCC1,0.6
Clc1cc(CSc2ccccc2)nc(-c2ccccc2)n1,2.3

# The listing, from the start:
SMILES,H5N1 CPE
O=C(COC(=O)[C@H](Cc1ccccc1)NS(=O)(=O)c1ccccc1F)NC1CCCCC1,0.6
Clc1cc(CSc2ccccc2)nc(-c2ccccc2)n1,2.3
Cc1nnc(SCC(=O)Nc2ccc(Br)cn2)[nH]c1=O,0.6
Cc1nc2nc(SCC(=O)C(C)(C)C)[nH]c2cc1Br,0.5
COc1ccc(S(=O)(=O)Nc2cc(C(=O)NC3CCCCCC3)ccc2N2CCOCC2)cc1,i
Cc1ccc(NC(=O)NNC(=O)Cn2nc(-c3ccccc3)c(-c3ccccc3)c(C#N)c2=O)cc1,0.5
CCc1cc(C(=O)NNC(=S)NCc2ccccc2)cs1,i
Cc1cccc(C(=O)O/N=C(\N)c2cccc([N+](=O)[O-])c2)c1,2.8
O=C(CCN1CCCCC1)c1ccccc1,1.0
Cc1ccc(C)c(N2CCN(S(=O)(=O)c3ccc4c(c3)oc(=O)n4C)CC2)c1,1.2
N#CCSc1nc2c(sc(=S)n2Cc2ccco2)c(=O)n1-c1ccc(F)cc1,i
CCOC(=O)CCN=Cc1c(O)n(-c2ccc(Br)cc2)c(=O)[nH]c1=O,0.4
OC1(c2cn(Cc3ccccc3)nn2)CCCCC1,i
O=C(COc1ccc(Cl)cc1Cl)NCCCCc1ccccc1,i
N/C(=N\OC(=O)CCC1CCCCC1)c1ccc([N+](=O)[O-])cc1,i

# Four compounds from above, ordered by count of non-hydrogen atoms, descending.
SMILES,H5N1 CPE
N#CCSc1nc2c(sc(=S)n2Cc2ccco2)c(=O)n1-c1ccc(F)cc1,i
N/C(=N\OC(=O)CCC1CCCCC1)c1ccc([N+](=O)[O-])cc1,i
CCc1cc(C(=O)NNC(=S)NCc2ccccc2)cs1,i
O=C(CCN1CCCCC1)c1ccccc1,1.0

# Next section.
SMILES,H5N1 CPE
CCN1CCn2c1nc(N1CCCCC1)nc2=O,i
CCOC(=O)c1nnn(CC(=O)Nc2cccc(F)c2)c1C(=O)OCC,0.3
CSc1ccccc1C(=O)Nc1cccc(N(C)S(C)(=O)=O)c1,1.0
COc1cccc(NC(=S)NCCC(c2ccccc2)c2ccccc2)c1,i
COc1ccc(CC(=O)Nc2cc(C)on2)cc1OC,0.6
CCOc1ccc(Br)cc1CC(=O)O,i
O=C(/C=C/c1ccco1)NC(=S)Nc1ccc(N2CCOCC2)c(Cl)c1,i
COc1cc(/C=C/C(=O)c2ccc(Cl)s2)cc(OC)c1O,i
CCc1c(C)c(C#N)c2nc3ccccc3n2c1NCCN(C)C,2.2
COc1ccccc1CN1CCN(C(CC(C)C)c2nnnn2Cc2cccs2)CC1 (stereo not drawn),i
CCC(C)(C(=O)NC1CCCCC1)N(CC1CCCO1)C(=O)CNC(=O)c1ccccc1 (stereo not drawn),0.9
O=C(Nc1cnn(Cc2ccc(Cl)cc2Cl)c1)c1noc2c1CCCC2,0.1
O=C(COC(=O)c1cccnc1Cl)c1ccccc1,i
OC1CCCN(Cc2cccc3ccccc23)C1 (stereo not drawn),0.9
CC(=O)Nc1c2c3c(cccc3n(C)c1=O)C(=O)c1ccccc1-2,1.5
COCCCNc1nc2c(c(=O)n(C)c(=O)n2C)n1Cc1cccc(OC)c1,0.4
Cc1cccc(-c2noc(CCC(=O)NCc3ccco3)n2)c1,i
CC(c1ccccc1)n1cc(C(=O)NCc2ccccn2)nn1 (stereo not drawn),i
CC(CN1CCCCC1)OC(=O)c1ccc2c(c1)OCO2 (stereo not drawn),i
Cc1ccc(S(=O)(=O)N2CCN(C(=O)COC(=O)COc3ccccc3)CC2)cc1,0.8
CS(=O)(=O)N1CCN(C(=O)c2ccncc2)CC1,1.1
CC(=O)c1sc(NC(=O)c2ccccc2F)nc1C,2.1
COc1ccc(N=C2SC(C(N)=O)CC(=O)N2CCc2ccc(OC)c(OC)c2)cc1 (stereo not drawn),0.3
CC(=O)OCP(C)(=O)COC(C)=O,i
CSCc1c(C(=O)NC2CCCc3ccccc32)oc2ccccc12 (stereo not drawn),i
CCCCOc1ccc(NC2=NC3(CCCC3)N=C(N)N2)cc1,i
Cc1ccc(C(=O)Nc2ccccc2C(=O)NCc2ccco2)cc1S(=O)(=O)N1CCCCC1,0.9
Cn1c(CSc2nc3ccc(Br)cc3[nH]2)nc2ccccc21,i
Cc1nc2cc(NC(=O)COc3ccc(C#N)cc3)ccc2n1-c1ccccc1,0.3
c1ccc(-c2nc[nH]c2-c2ccccc2)cc1,i
Cc1ccc(-c2nn3c(C)nnc3s2)cc1NCc1c(F)cccc1Cl,0.7
Cc1ccc(C(=O)Oc2cccc(NC(=O)c3cccs3)c2)cc1S(=O)(=O)N1CCOCC1,2.6
O=C(CCn1c(=O)oc2ccccc21)Nc1nccs1,0.4
CCOc1ccc2nc(NC(=O)C(CCSC)NS(=O)(=O)c3cccs3)sc2c1 (stereo not drawn),i
N#CC(C(=O)Nc1cccc(Cl)c1)=C1Nc2ccccc2N1,i
CCOc1cc(CNCCO)cc(Br)c1OCc1cccs1,i
O=C1CCN(S(=O)(=O)c2ccc(Cl)cc2)N1,0.2
CC1=C(C(=O)Nc2ccc(C)cc2)C(c2ccc(N(C)C)cc2)NC(=O)N1 (stereo not drawn),i
CCN1C(=O)/C(=C\N2CCOCC2)SC1=S,0.2
O=C1CCCC(=NCc2ccco2)C1,1.0
CC(C)CCn1c(CN2CCN(Cc3ccccc3)CC2)nc2c1c(=O)n(C)c(=O)n2C,0.3
O=C(c1ccccc1)n1nnc2ccccc21,i
O=C(Nc1cccc(-c2nc3ncccc3o2)c1)c1ccco1,i
COc1ccc(S(=O)(=O)NC(C)(C)C)cc1-c1nnc2c3ccccc3c(C)nn12,0.2
CCOCCCN(C(=O)Cn1nnc2ccccc21)C(C(=O)NCc1ccco1)c1ccncc1 (stereo not drawn),1.9
COc1cccc(NS(=O)(=O)c2ccc(S(=O)(=O)N3CCOCC3)cc2)c1,i
O=C(C1CCN(S(=O)(=O)c2cccc3nsnc23)CC1)N1CCCc2ccccc21,2.9
COc1ccc(N(CC(=O)NCCSC2CCCCC2)S(C)(=O)=O)c(OC)c1,0.2
C/C(Cl)=C/Cn1c(NCCCn2ccnc2)nc2c1c(=O)[nH]c(=O)n2C,3.3
CC1CC(C)CN(c2ncc3c(n2)CC(c2ccccc2Cl)CC3=O)C1 (stereo not drawn),3.2
CCCCc1nc(SCC(=O)Nc2ccc(S(N)(=O)=O)cc2)n[nH]1,0.6
CC(C)N1C(=O)C2C(C(=O)NCc3ccccc3)C3C=CC2(O3)C1C(=O)NC(C)(C)C (stereo not drawn),i
O=C(N/N=C/c1cccn1-c1ccc([N+](=O)[O-])cc1)C(O)c1ccccc1 (stereo not drawn),i
CN(C)c1nc2n(c(=O)n1)CCO2,1.1
COc1ccc(CCNC(=O)CCS(=O)(=O)c2ccc(C)cc2)cc1OC,0.2
C=CCN(CC(=O)NCC1CCCO1)C(=O)CCC(=O)Nc1cc(C)on1 (stereo not drawn),i
CC1CCN(c2cc(N3CCOCC3)c([N+](=O)[O-])cc2F)CC1,7.5
COc1ccc(C(C)N2CC34C=CC(O3)C(C(=O)OCC(C)C)C4C2=O)cc1 (stereo not drawn),1.8
Cc1nc2cc(F)ccc2n1C1CCN(Cc2nnnn2CCc2ccccc2)CC1,0.1
CCCCCCCCCOC(=O)C[n+]1csc(CCO)c1C,0.7
# Continuation:
SMILES,H5N1 CPE
CCCN(CCC)c1nc2ccccc2nc1C(C#N)C(=O)OCCOC (stereo not drawn),0.1
CCCCC(CCC(=O)Nc1nccs1)C(=O)O (stereo not drawn),0.9
Cc1ccc(C(C)C)c(OCCNC(=S)Nc2cccc3ccccc23)c1,i
Cc1ccc(NC(=O)CSc2nnc(COc3ccc(C#N)cc3)n2-c2ccccc2)cc1C,i
COc1cc(/C=N/Nc2nc(N3CCCC3)nc(N3CCCC3)n2)ccc1O,i
CCOC(=O)CC1=NC(=O)CS1,0.2
Cc1cc(=O)n2nc(N3CCCC(C(=O)N4CCOCC4)C3)sc2n1 (stereo not drawn),0.4
COc1ccc(CNC(=O)c2ccc(NC(=O)C3CCCO3)cc2)cc1 (stereo not drawn),i
Cc1ccc2c(c1)nnn2C1CCN(CC(=O)NCCc2nc3ccccc3[nH]2)CC1,i
COc1ccc(-c2noc(CCC(=O)NCCCN3CCC(Cc4ccccc4)CC3)n2)cc1,i
O=C(O)C1CC(=O)N(CCc2ccccc2)C1 (stereo not drawn),i
COC(=O)c1ccccc1NC(=O)c1cc(C2CC2)on1,i
COCCCNc1cc(C)nc2ccccc12,i
O=S1(=O)CCN2C(Cc3ccc(SC(F)F)cc3)=CSC2=N1,i
CN1C(=O)c2ccccc2Sc2ccc(NC(=O)NC3CC3)cc21,i

# Rewritten with each value named: part of the list above.
canonical_smiles: O=C(O)C1CC(=O)N(CCc2ccccc2)C1 (stereo not drawn)
  H5N1 CPE: i

canonical_smiles: COC(=O)c1ccccc1NC(=O)c1cc(C2CC2)on1
  H5N1 CPE: i

canonical_smiles: COCCCNc1cc(C)nc2ccccc12
  H5N1 CPE: i

canonical_smiles: O=S1(=O)CCN2C(Cc3ccc(SC(F)F)cc3)=CSC2=N1
  H5N1 CPE: i

# Following part:
SMILES,H5N1 CPE
CC(=O)c1c(Nc2ccc3c(c2)OCCO3)oc(C)cc1=O,0.9
CC(=Nc1ccc2c(c1)nc(CO)n2C)C1=C(O)CC(C)(C)CC1=O,i
Cc1ccc(-c2nc(SCC(N)=O)c(C#N)c3c2CCCC3)cc1,1.9
CCOc1ccc(NC(=O)C2CC(=O)N(C)C(=Nc3ccc4c(c3)OCO4)S2)cc1 (stereo not drawn),i
Cc1ccc(SCc2cc(=O)n3[nH]c(C)nc3n2)cc1,0.7
O=C(NCc1ccco1)c1cnc2sccn2c1=O,5.8
CCN(CC)C(=O)Cn1c(=O)n(-c2ccccc2)c(=O)c2c3c(sc21)CCC3,0.8
COc1ccc2oc(=O)c(C(=O)Nc3ccccc3-c3ccccc3)cc2c1,i
O=C(CN1CCN(c2ccccn2)CC1)N1c2ccccc2Sc2ccc(C(F)(F)F)cc21,0.4
COc1ccc(N2CCN(C(=O)Cc3cccs3)CC2)cc1,3.2
CCOc1ccc(NC(=O)c2cc3cc4ccc(OC)cc4nc3o2)cc1,i
CCOCCCn1c(=N)c(C(N)=S)cc2c(=O)n3cccc(C)c3nc21,5.1
C=CCSc1nnc(-c2cccnc2)o1,33*
Cc1cccc(OCC(O)Cn2c(=N)n(CCN3CCCCC3)c3ccccc32)c1 (stereo not drawn),i
CCOC(=O)C[n+]1c(C)sc2ccc(OC)cc21,0.6

# Of the compounds above, these contain a nitro group on carbon.
SMILES,H5N1 CPE
Cc1cccc(C(=O)O/N=C(\N)c2cccc([N+](=O)[O-])c2)c1,2.8
N/C(=N\OC(=O)CCC1CCCCC1)c1ccc([N+](=O)[O-])cc1,i
O=C(N/N=C/c1cccn1-c1ccc([N+](=O)[O-])cc1)C(O)c1ccccc1 (stereo not drawn),i
CC1CCN(c2cc(N3CCOCC3)c([N+](=O)[O-])cc2F)CC1,7.5

# Next results:
SMILES,H5N1 CPE
O=C1CC(c2cccs2)CC2=C1C(c1ccccc1)n1ncnc1N2 (stereo not drawn),1.9
COc1ccc(CC(=O)OCc2cc3ccc(C)cc3[nH]c2=O)cc1,i
COc1ccc(-c2cc(C(=O)NCc3ccc(Cl)cc3)no2)cc1OC,1.0
Cc1ccc(CN2CCN(CC3CC4C=CC3C4)CC2)cc1 (stereo not drawn),i
CC(C)NC(=O)N1CCN(c2ccncc2S(=O)(=O)N2CCOCC2)CC1,0.1
O=C(NCc1cccnc1)c1cccc(F)c1,1.1
CCC(C)C(NC(=O)[C@@H](NC(=O)c1ccccc1F)C(C)C)C(=O)OC (stereo partly drawn),i
N#Cc1c(-c2ccco2)cc(-c2ccccn2)nc1N,0.2
Cc1ccc(-c2csc3nnc(SCc4csc(C)n4)n23)cc1,3.7
COc1ccccc1NC(=O)CN1CCN(CC(=O)Nc2ccc3c(c2)OCO3)CC1,i
CN(CC(=O)NC1CCCCC1)S(=O)(=O)c1cccc2cccnc12,2.2
CCCCCCn1c(C)nc2c(c1=O)c1nc3ccccc3nc1n2/N=C/c1ccco1,i
CCc1nc2n[nH]c(N)c2c2c1CSC(C)(C)C2,0.2
O=C(O)CCCC(=O)Nc1ccc(C(=O)N2CCCCC2)cc1,0.6
Cc1c(NC(=O)c2ccc3c(c2)OCO3)cccc1-c1nc2ccccc2s1,i
Cc1c(C(=O)OCc2ccccc2)[nH]c2c1C(=O)CC(c1ccco1)C2 (stereo not drawn),i
CC1CCc2c(sc3nc(SCC(=O)NCc4ccco4)nc(N)c23)C1 (stereo not drawn),i
O=C(O)/C=C/C(=O)Nc1ccc(F)cc1F,i
COc1ccc(NC2=CC(=O)CC(c3ccccc3)C2)c(OC)c1 (stereo not drawn),i
C#CCOC(=O)Nc1cccn(Cc2c(Cl)cccc2Cl)c1=O,i
Cn1c(=O)[nH]c(=O)c2c1nc(SCC(=O)Nc1ccccc1)n2Cc1ccccc1,0.9
COc1ccc(C(=O)Cn2nnc(-c3ccccc3NC(=O)C3CC3)n2)cc1,i
CCOc1ccccc1NC(=O)c1ccccc1N(C)S(C)(=O)=O,i
CCC(C)c1ccc(OCCCCN2CCOCC2)cc1 (stereo not drawn),1.1
COc1cc(NC(=O)c2ccccc2)c(OC)cc1NC(C)=O,0.2
OC(COc1ccc2c(c1)CCC2)Cn1cnc2ccccc21 (stereo not drawn),3.3
O=C(CCS(=O)(=O)c1ccc(Br)cc1)NCc1cccs1,i
CC(C)Cc1nc2sc3c(NCc4ccco4)ncnc3c2c2c1COC(C)(C)C2,0.5
O=C1CC(c2cccc(Cl)c2)C(n2cncn2)C(=O)C1C1NCCc2ccccc21 (stereo not drawn),0.6
CC(=O)NCCn1c(SCC(=O)c2ccccc2)nc2ccccc2c1=O,0.1
CCOC(=O)c1[nH]cnc1C(=O)Nc1ccccn1,0.4
Cn1c(=O)c2c(nc(SCc3cccnc3)n2Cc2ccccc2)n(C)c1=O,1.5
COc1cc(/C=C2/N=C(C3CCCCC3)OC2=O)cc(OC)c1OC,1.2

# From PubChem BioAssay
